Assay outcomes from PubChem BioAssay.
VDR inh: vitamin D3 receptor (human) inhibition; P11473; VDR-SRC2-3 peptide fluorescence polarization, 2 h; Potency, µM, without a hit: max response, negative = inhibition, most hits filed as inhibitors; hit rate 0.93% among 400,000; AID 504847; active means well fitted inhibition curve with a large enough effect; inconclusive means small, poorly fitted or top-dose-only effect, or another doubt; inactive means no such curve, though single readings can be large or run the other way; further: series mostly up to about 120 µM
Target sequence (P11473 whole entry, looked up): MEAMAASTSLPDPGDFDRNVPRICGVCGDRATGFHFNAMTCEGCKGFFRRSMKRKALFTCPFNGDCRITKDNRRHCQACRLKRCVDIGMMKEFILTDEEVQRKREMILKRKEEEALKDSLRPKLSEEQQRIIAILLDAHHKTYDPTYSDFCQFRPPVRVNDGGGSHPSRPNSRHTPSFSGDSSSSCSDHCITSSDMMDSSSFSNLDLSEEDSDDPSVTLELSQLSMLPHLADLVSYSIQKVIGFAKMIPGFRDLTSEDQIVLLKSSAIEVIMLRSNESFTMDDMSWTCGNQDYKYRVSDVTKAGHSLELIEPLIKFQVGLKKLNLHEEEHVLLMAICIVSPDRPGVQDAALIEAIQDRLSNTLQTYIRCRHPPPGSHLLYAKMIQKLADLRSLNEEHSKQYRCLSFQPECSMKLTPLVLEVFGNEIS
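Reagent solutions, kept cold and dark, are dispensed first; compounds are then pinned in at 23 nl, plates briefly spun, and incubated 2 h at ambient temperature. Inhibition of VDR–SRC2-3 peptide binding is read by fluorescence polarization.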
An asterisk follows results filed as active; ? = inconclusive; & = joins results of further samples. On the % scale 0 is the no-effect control and ±100 the full control effect; potency means the concentration at half of the fitted maximal effect.

VDR inh,structure
20µM*,Cc1ccc(C)c(S(=O)(=O)ON2C(=O)c3ccccc3C2=O)c1
-8%,CC(=O)c1nnn(-c2ccc([N+](=O)[O-])cc2C)c1C
-2%,O=C1c2ccccc2C(=O)N1OS(=O)(=O)c1ccc(F)cc1
3%,O=C(NC(=S)Nc1ccccc1N1CCOCC1)c1cccs1
1%,Cc1nc(-c2ccc(F)cc2)sc1CCNC(=O)c1cccs1
4%,CCOC(=O)C(CC)/C(C)=N\NC(=O)CCC(=O)Nc1ccc(Cl)cc1Cl (stereo unspecified)
0%,CCCCC(NC(=O)Cc1c(C)c2cc3c(C)c(C)oc3c(C)c2oc1=O)C(=O)O (stereo unspecified)
19%,COc1ccc(C(=O)NC(Cn2ccnc2)C(C)(C)C)cc1OC1CCN(C(C)C)CC1 (stereo unspecified)
11%,Cc1nn(-c2ccc(C(=O)Nc3nnc(C4CC4)s3)cc2)c(C)c1Cl
16%,Cc1ccc(CN2CCN(CCCn3cccn3)CC2CCO)cc1 (stereo unspecified)
-1%,Cc1sc2nc(CN3CCOCC3)nc(NCCc3ccccc3)c2c1C
1%,O=C(Nc1ccc(OC(F)(F)F)cc1)c1noc2c1CCCC2
15%,Cc1nc(SCC(=O)NCC2CCCO2)nc(C)c1C (stereo unspecified)
13%,COc1ccc(OC)c(NC(=O)Cc2cccs2)c1
-13%,CC(C)(C)C(=O)NC1CC2CCCC(C1)N2C(=O)Nc1ccccc1 (stereo unspecified)
-11%,O=C(CSc1ccccc1)NCc1ccco1
-8%&-5%,Cc1cccc(N2CCN(C(=O)c3noc4c3COc3ccc(C)cc3-4)CC2C)c1 (stereo unspecified)
-5%,O=C(N/N=C/c1ccc[nH]1)c1sc2ccccc2c1Cl
12%,CSc1nsc(SCC(=O)N2CCCCC2)n1
-13%,COc1ccc(C(=O)OCC(=O)NCC2CCCCC2)cc1S(=O)(=O)N1CCCc2ccccc21
-13%,CCN1CCN(C(=O)N(CC(=O)Nc2ccc(C(N)=O)cc2)S(=O)(=O)c2ccc(C)cc2)CC1
10%,CN1C(=O)N(c2nnc(C(C)(C)C)s2)C(=O)C1c1ccccc1 (stereo unspecified)
16%,Cc1ccc(N(CC(=O)O)S(=O)(=O)c2cccc3nonc23)cc1
4%,Cc1cc2c(c(=O)o1)C1(C(=O)N(CC(=O)O)c3ccccc31)C(C#N)=C(N)O2 (stereo unspecified)
-9%,CCOc1ccc(C(CC(=O)O)NC(=O)c2cccs2)cc1OC (stereo unspecified)
2%,N#Cc1ccccc1S(=O)(=O)N1CCN(CC(O)c2ccccc2)CC1 (stereo unspecified)
-8%,CCn1c(C(C)NC(=O)c2cccs2)nc2ccccc21 (stereo unspecified)
-5%,COc1ccc(C)cc1NC(=O)C(CCS(C)(=O)=O)NC(C)=O (stereo unspecified)
9%,Cc1ccsc1/C=N\NC(=O)CCc1c(C)n[nH]c1C
?,O=C(NC1CCC(O)CC1)c1ccc(-c2ccc([N+](=O)[O-])cc2)o1 (stereo unspecified)
89µM*,CCOC(=O)c1sc(=S)n(-c2ccc(F)c(F)c2)c1N
-5%,O=C(Nc1cccc(F)c1)c1cccc(S(=O)(=O)N2CCOCC2)c1
-2%,COc1ccccc1OCC(=O)Nc1cccc(-c2nnc(-c3ccco3)o2)c1
0%,CCC(C(=O)NCCC(C)C)n1ccc2cc(S(=O)(=O)N3CCCCC3)ccc21 (stereo unspecified)
-2%,Cc1cc(C)c2c(CC(=O)O)c(C)[nH]c2c1
-18%,CC1CN(C(=O)c2ccccc2OCc2ccc(Cl)cc2Cl)CC(C)O1 (stereo unspecified)
-5%,CCn1c(CNc2nc3ccccc3n2C(C)C)nc2ccccc21
2%,Cc1cc(C)nc(NC(=S)NC(=O)c2ccccc2)n1
-3%,CCc1nnc(NC(=O)C2CCCN2C(=O)Nc2ccc(C)cc2)s1 (stereo unspecified)
-2%,COc1ccc(CCNC2=CC(=O)CC(C)(C)C2)cc1

Random excerpt: 5 records from the list, in no set order.
VDR inh,structure
-2%,Cc1cc(C)c2c(CC(=O)O)c(C)[nH]c2c1
-13%,CCN1CCN(C(=O)N(CC(=O)Nc2ccc(C(N)=O)cc2)S(=O)(=O)c2ccc(C)cc2)CC1
-3%,CCc1nnc(NC(=O)C2CCCN2C(=O)Nc2ccc(C)cc2)s1 (stereo unspecified)
16%,Cc1ccc(N(CC(=O)O)S(=O)(=O)c2cccc3nonc23)cc1
4%,Cc1cc2c(c(=O)o1)C1(C(=O)N(CC(=O)O)c3ccccc31)C(C#N)=C(N)O2 (stereo unspecified)

Additional compounds follow.
VDR inh,structure
-31%,COc1ccc(C2=NCCn3nc4cc(OC)ccc4c32)cc1
8%,Cc1ccc2nc3sc(C(=O)Nc4ccc(F)cc4)cc3cc2c1
-5%,CCC(=O)n1nc(NCc2ccc(OC)c(OC)c2)nc1NCc1ccc(OC)c(OC)c1
10%,Nc1n[nH]c(S(=O)(=O)CCCc2ccccc2)n1
-13%&-12%,CCOC(=O)C(CC)Sc1ccc2nnc(-c3cccnc3)n2n1 (stereo unspecified)
5%,COc1ccc(CNC(=O)Cn2ccc([N+](=O)[O-])n2)cc1OC
-2%,Cc1noc(NS(=O)(=O)c2ccc(NC(=O)CSc3n[nH]c(-c4ccccc4)n3)cc2)c1C
-1%,COc1ccccc1/C=C(/C(=O)OCC(=O)Nc1ccccc1C)c1ccccc1
-4%,COc1cc(NC(=O)c2ccc(C(=O)Nc3cc(OC)c(Cl)cc3OC)cc2)c(OC)cc1Cl
-10%,Nc1ccn([C@@H]2O[C@H](CO)[C@H](O)C2(F)F)c(=O)n1
7%,CCN(CC)CCNC(=O)C(=O)NCC(c1cccnc1)N1CCN(c2ccccc2)CC1 (stereo unspecified)
-5%,COc1ccccc1C(=O)N1CCN(CCNC(=O)C(=O)Nc2ccc(Br)c(C)c2)CC1
10%,O=C(CCc1n[nH]c(=O)[nH]c1=O)N/N=C/c1ccco1
17%,CC(C)c1nnc(NC(=O)c2c(O)c3cccc4c3n(c2=O)CCC4)s1
2%,Cn1c(NC(=O)CCC2CCCCC2)cc(=O)n(C)c1=O
1%,COc1ccc(C(C)=O)cc1COC(=O)CCC(=O)N(CC(C)C)c1c(N)n(CC(C)C)c(=O)[nH]c1=O
-28%,Cc1cc(N2CCN(C(=O)/C=C/C(=O)O)CC2)c2ccccc2n1
17%,CC1OC(OC2CCC3(C)C(CCC4C3CC(O)C3(C)C(C5=CC(=O)OC5)CCC43O)C2)CC(O)C1OC1CC(O)C(OC2CC(O)C(OC3OC(CO)C(O)C(O)C3O)C(C)O2)C(C)O1 (stereo unspecified)
-1%,O=C(Nc1ccc(Oc2ccccc2)cc1)C1CCCO1 (stereo unspecified)
-10%,Cc1nn(Cc2ccccc2)c(Cl)c1/C=C/C(=O)OCC(=O)N1CCCC1=O
-3%,O=S(=O)(c1ccccc1)N1N=C(c2cccs2)CC1c1ccc(Br)cc1 (stereo unspecified)
-15%,CCN(CC)CCOC(=O)c1ccc(NC(=O)CCn2c(=O)oc3ccccc32)cc1
-13%,COc1ccccc1NC(=O)C1=C(C)Nc2nc(-c3ccco3)nn2C1c1cccc(C)c1 (stereo unspecified)
-4%,Cc1nn(-c2ccccc2)c(C)c1C(=O)Oc1ccccc1
-13%,CCn1c(C)nc2cc(C(=O)N/N=C(\C)c3ccccc3O)ccc21
-11%,COc1cc(Cl)ccc1OCc1cc(C(=O)NC(C)Cc2cnccn2)no1 (stereo unspecified)
7%,CC1(C)Cc2c(ccc3ccccc23)/C(=C/C(=O)N2CCCCC2)N1
3%,Cc1ccccc1N(CC(=O)NCc1ccccc1)C(=O)CCC(=O)Nc1nccs1
7%,COc1ccc(-n2nc(C(=O)NCC(=O)N3CCN(Cc4ccc5c(c4)OCO5)CC3)c3ccccc3c2=O)cc1OC
3%,CCOc1cc(CNC2CCCC2)ccc1OCc1ccccc1Cl
-6%,COc1cc(OC)c(-c2oc3ccccc3c(=O)c2O)c(OC)c1
18%,CCC(C)NC(=O)C1CCC(CNS(=O)(=O)c2ccc(Cl)cc2)CC1 (stereo unspecified)
-1%,CCCCN(CC)c1nc(-c2ccncc2)nc2ccccc12
2%,O=C(NCc1ccccc1)N[C@@H](Cc1ccccc1)C(=O)O
-6%,CCc1cc(=O)oc2cc(OC(C)C(=O)NCCCn3ccnc3)ccc12 (stereo unspecified)
9%,COc1ccc([N+](=O)[O-])cc1NC(=O)COC(=O)c1ccc(O)cc1
13%,S=C(c1ccccc1)N(c1ccccc1)c1ccccc1
-5%,COc1cccc2nc3c(C(=O)NCCN(C)C)cccc3cc12
0%,CCN1CCN(C(=O)c2ccc3c(c2)N(Cc2cccc(Cl)c2)C(=O)c2ccccc2S3=O)CC1 (stereo unspecified)
9%,O=C(CCl)NCCNC(=O)c1cc(OCC(F)(F)F)ccc1OCC(F)(F)F
-12%,O=C(N/N=C/c1ccco1)C1CC(=O)N(c2ccccc2)C1 (stereo unspecified)
-16%,COc1ccc(CCNC(=O)COC(=O)c2ncc(Cl)c(Cl)c2Cl)cc1OC
-6%,OCCN(CCO)CC(O)Cn1c2ccccc2c2ccccc21 (stereo unspecified)
-14%,CCCOc1ccc(C(=O)NNC(=O)c2cccc(S(=O)(=O)N3CCN(C(C)=O)CC3)c2)cc1OC
-10%,Cc1ccc2[nH]c(=O)c(CN(Cc3ccco3)Cc3nnnn3Cc3ccco3)cc2c1
5%,Cc1ccc(S(=O)(=O)CC(=O)NC(C)(C)C)cc1
14%,COCCCn1c(C)c(C(C)=O)cc(NC(=O)c2ccccc2)c1=O
8%,COCCn1c(CN2CCN(C(=O)c3ccco3)CC2)nc2c1c(=O)n(C)c(=O)n2C
9%,Cc1ccc(-n2ncc(C(=O)Nc3ccc4c(c3)OCCO4)c2C2CCN(C(=O)OC(C)(C)C)CC2)cc1C
-8%,COc1ccc(/C(C)=N/NC(=S)NCCc2ccccc2)cc1
3%,CC(=O)C(Cc1ccccc1)NC(=O)CCl (stereo unspecified)
-5%,Oc1c(C(c2cccc(Br)c2)N2CCCC2)sc2nc(-c3ccco3)nn12 (stereo unspecified)
-20%,O=S(=O)(NCc1ccccc1)c1ccc(NC(=S)NCc2ccco2)cc1
-3%,COc1ccc(C2c3c(oc4ccccc4c3=O)C(=O)N2CC2CCCO2)cc1 (stereo unspecified)
-8%,COc1cc(C2Nc3ccc4ncccc4c3C3=C2C(=O)CCC3)cc(OC)c1OC (stereo unspecified)
-3%,CCCCn1c(N)c(N(CC)C(=O)C2=COCCO2)c(=O)[nH]c1=O
?,CSc1ncccc1C(=O)OCC(=O)NC1CCC(C)CC1 (stereo unspecified)
9%,COc1ccc(NC(=O)C(C)(C)Oc2ccc(Cl)cc2)cn1
11%,O=C(Cn1cc(C(F)(F)F)ccc1=O)N/N=C/c1ccc(F)cc1
-6%,Cc1ccc2c(c1)oc(=O)n2CC(=O)c1ccccc1

The listing continues.
VDR inh,structure
20%,Cc1cc(C(=O)N/N=C/c2cccs2)n[nH]1
1%,CN=Cc1nc(-c2ccccc2)oc1O
-1%,CCn1c(C(=O)Nc2cc(Cl)ccc2C)cc2sc(Cl)cc21
-9%,COc1cc(C(=O)NCC(c2cccnc2)N2CCN(C)CC2)cc(OC)c1OC (stereo unspecified)
-30%,CC(=O)NS(=O)(=O)c1ccc(N=c2ssc3c2-c2ccc(C)cc2NC3(C)C)cc1
4%,O=S1(=O)CC(N2CCOCC2)c2ccccc21 (stereo unspecified)
16%,O=C1OCC2=C1C(c1ccc(Cl)cc1)c1cc3c(cc1O2)OCO3 (stereo unspecified)
-18%,O=[N+]([O-])c1ccc(Cl)c(C2Nc3cccc4cccc(c34)N2)c1
-18%,COc1ccc(CCNC(=O)c2ccc3c(Cl)c4c(nc3c2)CCCC4)cc1OC
-17%,CCOC(=O)C1CCCN(CC(=O)Nc2c(C(=O)OC)[nH]c3ccccc23)C1 (stereo unspecified)
-13%,O=C(NNC(=O)c1ccc2c(=O)n3c(nc2c1)CCC3)c1ccc(Cl)cc1
-6%,CCOCCCn1c(C)nc2c[n+](CC(=O)c3ccc4ccccc4c3)cc(Br)c21
10%,COc1ccc(OCCCn2c(C)nc3cc(C)c(C)cc32)cc1
14%,COc1ccc(Cl)cc1S(=O)(=O)N1CCN(Cc2cccc(F)c2)CC1
-12%,C=CCn1c(SCC(O)Cn2c3ccccc3c3ccccc32)nnc1-c1ccco1 (stereo unspecified)
12%,N#Cc1cc2ccccc2nc1SCC(=O)Nc1ccccc1N1CCOCC1
2%,COc1ccc(-c2cccc(NS(=O)(=O)c3ccc(NC(C)=O)cc3)c2)nn1
-4%,CCCCNC(=O)c1nnn(-c2ccccc2)c1N
-6%,O=C(NCCCN1CCOCC1)c1cc2ccccc2cc1O
7%,c1coc(CNc2nc3ccccc3n2CCN2CCOCC2)c1

Next part, overlapping the part above by 4 compounds.
VDR inh,structure
2%,COc1ccc(-c2cccc(NS(=O)(=O)c3ccc(NC(C)=O)cc3)c2)nn1
-4%,CCCCNC(=O)c1nnn(-c2ccccc2)c1N
-6%,O=C(NCCCN1CCOCC1)c1cc2ccccc2cc1O
7%,c1coc(CNc2nc3ccccc3n2CCN2CCOCC2)c1
2%,Cc1cc2nc(C3CCN(Cc4nnnn4Cc4ccccc4)CC3)[nH]c2cc1C
-2%,Cc1ccc(NC(=O)CO/N=C(\N)c2nonc2N)cc1C
2%,O=C(N=C1SC2CS(=O)(=O)CC2N1c1ccccc1C(F)(F)F)C1CCCO1 (stereo unspecified)
4%,O=C(O)c1sc2cc(C(F)(F)F)cnc2c1-c1ccccn1
3%,O=C(NCC1CCN(C(=O)c2c(F)c(F)c(F)c(F)c2F)CC1)c1c(F)c(F)c(F)c(F)c1F

Some of the compounds tested, so the mix of outcomes need not match the whole.
